Bioassay records from PubChem.
A1 inh – inhibitors of the anti-apoptotic protein A1, read as caspase activation | hit rate 0.066% among 330,000 | caspase activation, % (concentration not given with the values) | MEF A1-2A-BIM cells, Caspase-Glo 3/7 luminescence, 3 h; percent of clofoctol response, vehicle zero;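 active = over half of replicate activation scores above 10%, or exactly half above 10 with the replicate mean above 10; inconclusive = replicate mean below 10 yet half the replicates above 10; inactive = over half of replicates below 10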;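 also: wells of about 30 µL received 50 nL stock; many hits fall short of the cut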
T cruzi repl – blocks replication of Trypanosoma cruzi; hit rate 1.4% among 300,000; AID 1885; T. cruzi beta-gal in NIH3T3, luminescence, 90 h; inhibition, % (no concentration beside the values);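 active = mean inhibition across valid replicates above about 55%, limit read from the data; inconclusive = mean below that limit but half or more replicates reach it; inactive = mean below it, under half of replicates reach it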;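 also: signal also drops with host cell toxicity which is not excluded here; 0% = plate median of DMSO wells and 100% = zero luminescence signal; higher percent means less beta-gal luminescence so fewer parasites; stock transfer was 50 nL into about 50 µL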
ALR inh – inhibitors of human sulfhydryl oxidase ALR; purified ALR, DTT oxidation, H2O2 HRP-luminol luminescence; inhibition, % (no concentration beside the values); hit rate 3.8% among 290,000; AID 485317;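 active = mean and each replicate at 75% or more; inconclusive = only one of the two met; inactive = neither met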;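 also: stock transfer was 7.5 nL into about 7.5 µL; 0% = neutral wells and 100% = wells with inactivated enzyme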
Target sequence (P55789 whole entry, looked up): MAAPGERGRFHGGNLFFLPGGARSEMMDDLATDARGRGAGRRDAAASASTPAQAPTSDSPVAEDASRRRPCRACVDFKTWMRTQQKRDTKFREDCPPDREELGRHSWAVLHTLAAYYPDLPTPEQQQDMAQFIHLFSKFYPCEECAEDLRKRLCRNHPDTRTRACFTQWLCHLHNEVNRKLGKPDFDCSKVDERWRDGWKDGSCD
LANA-H2A inh – blocks KSHV LANA binding to histone H2A/H2B | cell-free LANA-H2A/H2B peptide, fluorescence polarization | inhibition, % (test concentration not listed) | Q9QR71 | hit rate 0.6% among 320,000; in the data active = inhibition mostly above about 10%, no sharp cut-off; inactive = mostly below about 6.7%;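 also: stock transfer was 7.5 nL into about 10 µL; 0% = median of vehicle wells and 100% = median of positive control wells; one replicate is shown; the record names a cut of 25% in any replicate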
B2AR ag – activates human beta-2 adrenergic receptor causing internalization; Am2.2-beta2AR cells, FAP receptor internalization, flow cytometry; reference of the scale not given here; response, % (test concentration not listed); hit rate 0.43% among 340,000; AID 504454;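 active = response above a set limit, near 3 SD of response in nonfluorescent compounds, cut at about 42% in these data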;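 also: stock transfer was 100 nL into about 11 µL; a reference agonist was the positive control; negative values mostly stem from fluorescent compounds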
Target sequence (P07550 whole entry, looked up): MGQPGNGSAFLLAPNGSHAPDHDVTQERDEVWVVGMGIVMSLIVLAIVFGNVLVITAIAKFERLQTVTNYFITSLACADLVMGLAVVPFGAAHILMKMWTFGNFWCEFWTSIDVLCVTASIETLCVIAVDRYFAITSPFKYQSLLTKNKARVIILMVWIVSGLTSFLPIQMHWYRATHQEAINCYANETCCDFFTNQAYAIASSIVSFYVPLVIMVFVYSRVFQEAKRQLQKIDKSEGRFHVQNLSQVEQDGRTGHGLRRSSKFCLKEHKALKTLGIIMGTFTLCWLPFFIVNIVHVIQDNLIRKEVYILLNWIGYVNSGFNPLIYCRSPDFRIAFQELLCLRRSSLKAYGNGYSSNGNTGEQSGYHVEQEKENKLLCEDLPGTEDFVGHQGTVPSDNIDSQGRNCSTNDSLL
Calb FLC – affects C. albicans growth with fluconazole | C. albicans CaCi-2 (fluconazole-resistant clinical isolate) + fluconazole, Alamar Blue growth, 48 h | growth inhibition, % (concentration not given with the values) | hit rate 0.57% among 300,000;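 active = most replicates above 75%; inconclusive = exactly half above 75%; inactive = most below 75%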;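 also: all wells also contain fluconazole at 8 µg/ml as a sub-toxic cotreatment; 0% = median of DMSO wells and 100% = median of geldanamycin control wells; wells of about 8 µL received 7.5 nL stock; the first replicate is given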
rRNA inh HTS – selective bacterial rRNA inhibition in E. coli. hit rate 1.6% among 350,000. E. coli WT GFP vs humanized-ribosome RFP mutants, fluorescence, 24 h; stronger effect = lower value; DMSO median 0, no signal -100. AID 720706. GFP signal change (wild-type ribosome), % (no concentration beside the values);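 active = significant combined selectivity score with lowered wild-type GFP, culture density cut under 30%, mutant RFP and density less affected; inactive = any of these conditions unmet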; also: one replicate is shown; some compounds called inactive have numbers as strong as hits
Beta apoptosis – beta cell apoptosis inhibition; INS-1E cytokine-induced death, ATP luminescence, 48 h; percent of positive-control rescue, neutral wells zero; hit rate 0.8% among 300,000; AID 435005; protection from apoptosis, % (test concentration not listed);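 active = all replicates at 75% or more, or half of them and the mean; inconclusive = half reach 75% but not the mean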;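 also: 0% = cytokine-treated negative control wells and 100% = positive control rescue; higher means more ATP so stronger rescue from cytokine killing; wells of about 40 µL received 100 nL stock; the first replicate is given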
rRNA inh HTS OD600 – also measured in rRNA inh HTS; calls as there; OD600 change, %; measured here: OD600 growth;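 optical density of the mix in the first replicate; 0 = DMSO median and -100 = no signal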
rRNA inh HTS RFP – recorded beside rRNA inh HTS, whose call it bears; RFP signal change, %; measured here: RFP humanized mutant strains;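 first replicate; 0 = DMSO median and -100 = no signal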
An asterisk follows results filed as active; ? = inconclusive; · = no result given.

item	SMILES	A1 inh	T cruzi repl	ALR inh	LANA-H2A inh	B2AR ag
1	C[C@@H]1COC(=O)[C@H](Cc2ccc(F)cc2)CC/C=C/C[C@@H](CC(=O)N[C@H](CO)Cc2ccccc2)C(=O)N1	-0.2	·	2	3.8	-2
2	COc1ccc(OC)c(S(=O)(=O)NCCS(=O)(=O)N2CCN(c3ccccc3)CC2)c1	0.5	2	9	-4.4	-4
3	CCOC(=O)C1(Cc2ccccc2C(F)(F)F)CCN(C2CCSC2)CC1 (stereo not drawn)	1.3	1	-6	11	-2
4	Cc1cccc(C(=O)OCC(=O)N2CCCCCC2)c1C	-0.8	·	-2	1.7	1
5	CCN(CC)S(=O)(=O)c1ccc2oc(SCC3CN=C(c4ccc(OC)cc4)S3)nc2c1 (stereo not drawn)	-0.5	38	-10	-3.6	5
6	CCCCOc1ccc(C(CC(=O)NC)C(=O)O)cc1 (stereo not drawn)	0.2	-25	-7	-1.5	2
7	O=C(Cc1n[nH]c(=O)[nH]c1=O)N/N=C/c1cccc(Cl)c1	0.8	-11	-5	2.8	8
8	CN(C)c1ccc(/C=[N+](\[O-])C2SC(=S)N(C)C2(C)C)cc1 (stereo not drawn)	-1.0	-11	52	-2.2	5
9	COc1cccc(-c2ncc3ccccc3c2COC(=O)CCCC(=O)O)c1	?	·	1	-8.6	-10
10	CCOC(=O)c1sc(NC(=O)Cc2ccccc2OC)nc1C	0.1	10	3	1.0	-6
11	Cc1ccc(OCc2nnc(SC3CCc4ccccc4C3=O)n2C)cc1 (stereo not drawn)	-0.3	9	33	2.2	-6
12	Cc1cccn2c(CN3CCCC(c4ccccc4)C3)c(C(=O)N3CCOCC3)nc12 (stereo not drawn)	-0.7	9	-6	1.8	4

item	Calb FLC	rRNA inh HTS	rRNA inh HTS OD600	rRNA inh HTS RFP	Beta apoptosis
1	·	3	1	-0.2	1
2	-6	-7	-23	3.5	4
3	-2	-9	-18	5.2	2
4	·	1	-1	-4.6	-7
5	22	·	·	·	26
6	13	4	7	-2.1	-5
7	2	9	1	-3.7	-1
8	2	5	12	-1.1	0
9	·	-9	-5	6.3	6
10	2	-11	-21	-3.7	0
11	-3	-47	-73	-25	-9
12	-5	·	·	·	1

The list continues.
item	SMILES	A1 inh	T cruzi repl	ALR inh	LANA-H2A inh	B2AR ag
13	CC1=C(C(=O)Nc2ccccc2)C(c2ccc(N(C)C)cc2)NC(=O)N1 (stereo not drawn)	-0.7	4	11	-0.4	7
14	Cc1cnc(C(=O)OCC(=O)N(Cc2ccccc2)C(C)(C)C)cn1	2.4	·	·	-1.8	-3
15	CCOC(=O)C(C)(C)C(=O)C(C)(C)C(O)c1ccccn1 (stereo not drawn)	-0.6	1	-24	-0.1	-4
16	O=C1N/C(=C/c2cccs2)C(=O)N1Cc1ccccc1F	1.3	0	-9	-3.0	5
17	COc1cc2c(cc1OC)C(COc1cc(C)cc(C)c1)N(C(C)=O)CC2 (stereo not drawn)	0.0	11	-1	0.9	-5
18	CC(=O)NC(Cc1ccccc1)C(=O)N1CCN(C(=O)c2ccco2)CC1 (stereo not drawn)	0.7	-14	-2	4.6	-5
19	CCC1(c2ccc(Cl)cc2)NC(=O)N(CC(=O)NCc2ccc(F)cc2)C1=O (stereo not drawn)	0.3	4	-6	-3.2	-6
20	COc1ccc(C(=O)N2CCN(c3ncccn3)CC2)cc1S(=O)(=O)N1CCOCC1	1.4	·	-2	7.1	-2
21	O=C(CCN1N=C(c2ccccc2)CCC1=O)NCC1COc2ccccc2O1 (stereo not drawn)	1.2	-1	-11	-1.5	-6
22	COc1cc(/C=C(\C#N)C(=O)c2ccc(O)c(O)c2)cc(I)c1O	2.2	·	99*	-11	-244
23	Cc1ccc(-c2cc(C(=O)NCc3ccccn3)no2)cc1	-2.4	-6	1	-4.8	-5
24	COc1ccc(C2CC(=O)C=C(NCc3ccccc3)C2)cc1 (stereo not drawn)	0.5	-9	-13	-8.9	-7

item	Calb FLC	rRNA inh HTS	rRNA inh HTS OD600	rRNA inh HTS RFP	Beta apoptosis
13	4	·	·	·	-5
14	·	9	3	-0.5	4
15	-1	·	·	·	-7
16	-2	-5	2	-2.3	-10
17	1	-5	-10	4.6	-4
18	1	10	5	-6.5	-14
19	1	-12	-15	-0.6	4
20	·	·	·	·	-1
21	-10	-6	-4	2.4	0
22	·	·	·	·	-5
23	7	-18	-6	-3.5	-2
24	-22	·	·	·	0

Remaining list, next part
item	SMILES	A1 inh	T cruzi repl	ALR inh	LANA-H2A inh	B2AR ag
25	CN(C)c1ccc(/C=N/n2cnn(Cc3ccccc3Cl)c2=S)cc1	-0.4	-16	-6	-2.1	13
26	COc1cc(NC(=S)N2CCCCC2C)cc(OC)c1OC (stereo not drawn)	0.8	-6	·	1.7	0
27	O=C(c1cccc(S(=O)(=O)N2CCOCC2)c1)N(Cc1ccco1)Cc1cccs1	0.7	·	0	-4.2	2
28	N=C1N(/N=C/c2ccccc2)C(=Nc2ccccc2)C(=S)N1c1ccccc1	0.1	17	?	-1.8	-4
29	COc1ccccc1NC(=O)c1cc2c(CO)cnc(C)c2oc1=Nc1cccc(C(N)=O)c1	-0.2	-1	-5	1.7	58*
30	CCN1C(=O)CC(c2ccccc2)N(C2CCCC2)c2nc(Nc3ccc(C(=O)NC4CCN(C)CC4)cc3OC)ncc21 (stereo not drawn)	-0.5	·	-1	5.0	19
31	O=C(CN1CCN(S(=O)(=O)c2ccccc2)CC1)Nc1ccc2c(c1)OCO2	0.2	14	-7	-2.5	-1
32	COc1ccccc1NC(=O)C(NC(=O)c1ccc(C)cc1)c1ccccc1 (stereo not drawn)	-0.1	24	3	-0.8	1
33	O=C(O)c1cc2c(s1)-c1ccccc1CC2	-0.1	4	-22	4.4	15
34	COc1ccccc1NC(=O)COC(=O)C1CCN(/C=C/C(=O)C(F)(F)F)CC1	0.5	20	3	0.9	2
35	CCSc1cc(N2CCCC2)nc(-c2ccc(C)cc2)n1	-0.4	3	-7	-0.2	-11
36	O=c1c2cc(Br)ccc2[nH]c(=S)n1Cc1ccccn1	0.2	-6	93*	2.5	-18

item	Calb FLC	rRNA inh HTS	rRNA inh HTS OD600	rRNA inh HTS RFP	Beta apoptosis
25	-63	-27	-24	-1.8	4
26	?	16	11	0.7	1
27	·	-14	-22	-0.1	-4
28	11	·	·	·	3
29	3	7	8	-1.0	68
30	·	·	·	·	19
31	0	·	·	·	0
32	0	-2	-7	2.5	0
33	43	·	·	·	-3
34	33	2	3	3.6	3
35	3	·	·	·	2
36	22	1	2	-2.0	-4

More records:
item	SMILES	A1 inh	T cruzi repl	ALR inh	LANA-H2A inh	B2AR ag
37	CC(Oc1ccc(F)cc1)C(=O)Nc1ccccc1C(=O)N1CCCCC1 (stereo not drawn)	0.9	·	-3	-1.8	3
38	COc1ccc(C2CC(=O)Nc3n[nH]c(-c4ccccc4)c32)cc1OC (stereo not drawn)	-0.2	-1	·	-6.4	11
39	O=C(NNC(=O)c1nc(Cl)ccc1Cl)c1ccc(F)cc1	0.0	-6	-5	5.4	-7
40	CCSc1nnc(NC(=O)C(NC(=O)c2ccc(Cl)cc2)C(C)C)s1 (stereo not drawn)	0.1	-9	-1	2.0	5
41	COCCCC1CCN(C(=O)c2cc(COc3ccc(C)nc3)on2)CC1	0.0	-17	-2	-0.9	-4
42	COc1cccc(NC(=O)c2cnc(SC)nc2C)c1	0.4	-10	-20	-0.2	9
43	Cc1cc(Cl)c(OCCCNC2CCCC2)c(Br)c1	-1.2	35	-9	1.2	0
44	CC(=O)NC1=NN(C(C)=O)C(c2sccc2C)S1 (stereo not drawn)	-0.1	4	1	-0.7	-5
45	O=C(Nc1nnc(SCc2ccc(F)cc2)s1)c1ccc2c(c1)C(=O)N(c1ccccc1Cl)C2=O	0.5	-7	-15	2.3	10
46	COCCNC(=O)COc1ccccc1C	1.0	-8	-12	-2.8	5
47	C=CCOCCN(CCOCC=C)C1=NS(=O)(=O)c2ccccc21	0.3	0	-4	4.0	-4
48	O=C(CSc1ccc2nnc(-c3ccccn3)n2n1)N1CCOCC1	0.9	-13	3	-0.7	10

item	Calb FLC	rRNA inh HTS	rRNA inh HTS OD600	rRNA inh HTS RFP	Beta apoptosis
37	·	-1	-3	0.6	-3
38	-4	8	9	-3.6	-9
39	6	2	-7	1.4	5
40	3	·	·	·	-8
41	-1	·	·	·	7
42	15	2	-4	2.8	-5
43	0	-28	-39	38	-1
44	2	·	·	·	2
45	-9	4	12	-1.9	8
46	2	·	·	·	-4
47	7	8	5	0.3	4
48	2	3	7	-4.1	·

Remaining list, next part
item	SMILES	A1 inh	T cruzi repl	ALR inh	LANA-H2A inh	B2AR ag
49	NC(=O)Cc1nc(-c2ccc(Br)cc2)cs1	-0.7	-5	0	4.3	0
50	O=C(c1ccccn1)N1CCN(c2cccc(C(F)(F)F)c2)CC1	0.1	-5	2	-6.8	2
51	O=C(Cn1c(-c2cscn2)nc2ccccc21)Nc1ccccc1F	?	13	2	-6.9	-4
52	O=C(COC(=O)C1=COCCO1)NC(=O)c1ccc(OC(F)F)cc1	-0.3	-16	-3	7.0	4

item	Calb FLC	rRNA inh HTS	rRNA inh HTS OD600	rRNA inh HTS RFP	Beta apoptosis
49	-26	·	·	·	-5
50	5	5	-1	7.7	3
51	-6	·	·	·	-6
52	4	-5	11	-2.9	-9

3 entries from above in a different format:
| entry | SMILES | A1 inh | T cruzi repl | ALR inh | LANA-H2A inh | B2AR ag | Calb FLC | rRNA inh HTS | rRNA inh HTS OD600 | rRNA inh HTS RFP | Beta apoptosis |
| --- | --- | --- | --- | --- | --- | --- | --- | --- | --- | --- | --- |
| 49 | NC(=O)Cc1nc(-c2ccc(Br)cc2)cs1 | -0.7 | -5 | 0 | 4.3 | 0 | -26 | · | · | · | -5 |
| 50 | O=C(c1ccccn1)N1CCN(c2cccc(C(F)(F)F)c2)CC1 | 0.1 | -5 | 2 | -6.8 | 2 | 5 | 5 | -1 | 7.7 | 3 |
| 51 | O=C(Cn1c(-c2cscn2)nc2ccccc21)Nc1ccccc1F | ? | 13 | 2 | -6.9 | -4 | -6 | · | · | · | -6 |

Some of the compounds tested; rates above refer to the full screens.
